# Beta apoptosis: beta cell apoptosis inhibition | INS-1E cytokine-induced death, ATP luminescence, 48 h; percent of positive-control rescue, neutral wells zero | protection from apoptosis, % (concentration not given with the values) | 300,000 tested, 0.8% active | AID 435005;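 active = all replicates at 75% or more, or half of them and the mean; inconclusive = half reach 75% but not the mean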;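 note: 0% = cytokine-treated negative control wells and 100% = positive control rescue; higher means more ATP so stronger rescue from cytokine killing; wells of about 40 µL received 100 nL stock; the first replicate is given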
# rRNA inh HTS: selective bacterial rRNA inhibition in E. coli; E. coli WT GFP vs humanized-ribosome RFP mutants, fluorescence, 24 h; active compounds read low; DMSO median 0, no signal -100; GFP signal change (wild-type ribosome), % (test concentration not listed); 350,000 tested, 1.6% active;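 active = significant combined selectivity score with lowered wild-type GFP, culture density cut under 30%, mutant RFP and density less affected; inactive = any of these conditions unmet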; note: one replicate is shown; some compounds called inactive have numbers as strong as hits
# Vif TR-FRET: HIV-1 Vif–A3G interaction blockers – biochemical, TR-FRET, GST-Vif 1-94, biotin-A3G peptide, dose response retest, primary screen (AID 1117319) | TR-FRET GST-Vif / biotin-A3G peptide binding; higher % means a stronger effect; test concentration not given here; strong numbers were not always called active | 260,000 tested, 0.57% active | inhibition, %, or IC50 in µM where a hit was titrated;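 active = above the screen mean plus three standard deviations and confirmed in dose response; inconclusive = results disagree or hit not tested in dose response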;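 note: Vif residues 1-94 fused to GST binding biotinylated APOBEC3G peptide 110-148; 0% = full assay without inhibitor and 100% = GST in place of GST-Vif; retest series ran down from 100 µM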
# RanGTP-Impb inh: disruptors of Ran-importin-beta complex formation – biochemical, FRET, CFP-Ran, YFP-importin-beta, homogeneous, primary screen | 300,000 tested, 1.1% active | AID 2216 | inhibition, % (concentration not given with the values) | cell-free CFP-Ran/YFP-importin-beta FRET ratio;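 active = most replicates above 15%; inconclusive = exactly half above 15%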;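 note: 0% = DMSO wells and 100% = Ran loaded with GDP instead of GTP; wells of about 40 µL received 100 nL stock; the first replicate is given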
# AF4-AF9 inh: MLL-AF4/AF9 protein interaction inhibition. AlphaScreen, biotin-AF4 peptide binding to FLAG-AF9. AID 651704. P42568. 350,000 tested, 0.47% active. inhibition, % at 10 µM;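 active = every replicate reaching a set inhibition limit, whatever the replicate mean, cut at about 25% in these data; inconclusive = mean inhibition reaches that limit but some replicates miss it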;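 note: 0% = plate neutral control median and 100% = total signal loss; the record names both 10 and 1 µM as test concentration; the first replicate is given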
# Target sequence (P42568 whole entry, looked up): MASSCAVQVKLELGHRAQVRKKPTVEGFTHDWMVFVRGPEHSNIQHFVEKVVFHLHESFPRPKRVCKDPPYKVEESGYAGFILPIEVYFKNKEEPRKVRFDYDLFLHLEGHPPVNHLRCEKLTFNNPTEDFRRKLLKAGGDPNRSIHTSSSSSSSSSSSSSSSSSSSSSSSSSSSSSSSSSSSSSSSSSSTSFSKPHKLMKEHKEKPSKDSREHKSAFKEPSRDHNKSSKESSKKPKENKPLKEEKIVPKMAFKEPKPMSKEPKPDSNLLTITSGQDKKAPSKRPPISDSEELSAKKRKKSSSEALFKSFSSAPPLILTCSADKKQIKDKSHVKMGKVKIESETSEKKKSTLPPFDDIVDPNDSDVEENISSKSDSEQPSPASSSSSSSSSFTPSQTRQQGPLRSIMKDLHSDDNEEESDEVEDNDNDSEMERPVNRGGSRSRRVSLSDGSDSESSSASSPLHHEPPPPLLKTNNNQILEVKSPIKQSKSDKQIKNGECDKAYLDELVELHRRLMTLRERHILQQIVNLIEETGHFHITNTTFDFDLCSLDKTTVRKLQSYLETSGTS
# T cruzi inh: T. cruzi replication inhibition. T. cruzi beta-gal in NIH3T3, luminescence, 90 h. inhibition, % (concentration not given with the values). 300,000 tested, 1.4% active. AID 1885;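 active = mean inhibition across valid replicates above about 55%, limit read from the data; inconclusive = mean below that limit but half or more replicates reach it; inactive = mean below it, under half of replicates reach it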;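 note: signal also drops with host cell toxicity which is not excluded here; 0% = plate median of DMSO wells and 100% = zero luminescence signal; higher percent means less beta-gal luminescence so fewer parasites; stock transfer was 50 nL into about 50 µL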
# A1 inh: inhibitors of the anti-apoptotic protein A1, read as caspase activation; MEF A1-2A-BIM cells, Caspase-Glo 3/7 luminescence, 3 h; percent of clofoctol response, vehicle zero; caspase activation, % (no concentration beside the values); 330,000 tested, 0.066% active; AID 2462;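 active = over half of replicate activation scores above 10%, or exactly half above 10 with the replicate mean above 10; inconclusive = replicate mean below 10 yet half the replicates above 10; inactive = over half of replicates below 10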;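 note: wells of about 30 µL received 50 nL stock; many hits fall short of the cut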
# Calb FLC: C. albicans growth modulation with fluconazole | C. albicans CaCi-2 (fluconazole-resistant clinical isolate) + fluconazole, Alamar Blue growth, 48 h | growth inhibition, % (concentration not given with the values) | 300,000 tested, 0.57% active;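 active = most replicates above 75%; inconclusive = exactly half above 75%; inactive = most below 75%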;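 note: all wells also contain fluconazole at 8 µg/ml as a sub-toxic cotreatment; 0% = median of DMSO wells and 100% = median of geldanamycin control wells; wells of about 8 µL received 7.5 nL stock; the first replicate is given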
# rRNA inh HTS OD600: further read-out of rRNA inh HTS, marked with its call; OD600 change, %; measured here: OD600 growth;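 optical density of the mix in the first replicate; 0 = DMSO median and -100 = no signal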
# rRNA inh HTS RFP: also measured in rRNA inh HTS; calls as there; RFP signal change, %; measured here: RFP humanized mutant strains;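 first replicate; 0 = DMSO median and -100 = no signal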
# * hit, by the source's call; u = inconclusive; x = no result given. Some of the compounds tested. The share of hits here may be higher or lower than overall.
compound,Beta apoptosis,rRNA inh HTS,rRNA inh HTS OD600,rRNA inh HTS RFP,Vif TR-FRET,RanGTP-Impb inh,AF4-AF9 inh,T cruzi inh,A1 inh,Calb FLC
Cc1cc(C)n(C(C)CC(=O)N2CCc3ccccc32)n1 (stereo unspecified),x,15,10,0.1,2%,5.5,-5.2,-13,0.3,6
CCOC(=O)C1CCCN(C(=O)c2ccc3nc(-c4cccc(OC)c4)oc3c2)C1 (stereo unspecified),3,-35*,-24*,-2.8*,x,-2.4,0.3,-7,-2.7,-3
O=C(Nc1ccccc1)N1N=CCC1c1ccccc1 (stereo unspecified),x,11,7,1.6,-1%,1.7,-2.0,-9,x,-14
Cc1nc2ccccc2cc1C(=O)N(C)Cc1ccccc1,x,0,0,0.1,x,u,0.2,0,-0.4,-7
O=C1CN(S(=O)(=O)c2cc(Br)ccc2Br)CCN1,-1,19,15,2.1,x,x,0.4,x,0.7,x
CC1(c2ccccc2)NC(=O)N(CC(=O)Nc2cc(S(=O)(=O)N3CCOCC3)ccc2Cl)C1=O (stereo unspecified),1,-5,-5,-4.8,-2%,-0.9,-2.5,3,1.3,-20
CC(/C=N/NC(=O)c1cc(-c2ccc(C)o2)[nH]n1)=C\c1ccccc1,10,-8,1,-4.9,u,x,2.4,-12,1.1,x
CCc1ccccc1N(CC(=O)NC1CCCCC1)C(=O)CCC(=O)Nc1ccccn1,0,-6,-6,-3.6,x,4.4,1.0,-2,-0.6,1
CCCn1c(N2CCN(CC(=O)Nc3ccc4c(c3)OCCO4)CC2)nc2ccccc21,5,x,x,x,6%,2.6,x,10,-0.4,0
CC(C)C(=O)NC(=S)Nc1ccc(S(=O)(=O)N(C)C)cc1,-2,x,x,x,-3%,0.8,0.0,-5,-0.1,-7
O=C(O)c1ccc(-n2c(=O)c3ccccc3c3ccccc3c2=O)cc1,-9,25,24,-0.4,12%,0.2,-3.4,-3,-0.2,0
CCN(CC(=O)Nc1ccc(OC)cc1)C(=O)c1ccccc1Sc1ccccc1C#N,3,-11,-11,7.1,-4%,1.6,-9.2,-11,-0.9,0
Cc1ccc(C(=O)NCC2CCCO2)cc1N1CCCC1=O (stereo unspecified),-2,x,x,x,-8%,5.6,x,1,-0.6,6
Cc1ccc(C(=O)Nc2cccc(-c3ccc(N4CCOCC4)nn3)c2)cc1,7,1,15,-0.3,0%,1.5,-7.5,4,-4.1,20
COc1cccc(/C=N/NC(=O)c2cnn(-c3ccccc3)c2N)c1,0,-18,-3,-2.1,6%,4.0,2.0,-5,-12,-1
S=c1[nH]c2cnccc2n1Cc1ccccc1,x,8,15,-1.0,-2%,-0.4,0.9,-1,-0.9,10
CC1OC(Nc2ccc(OC(F)(F)F)cc2)C(O)C(O)C1O (stereo unspecified),-8,x,x,x,-5%,-2.1,x,8,0.3,u
CCCN(CC1CC1)C(=S)Nc1ccccc1F,-7,15,1,-1.7,14%,1.4,0.3,-14,-0.5,-3
CC(=O)Nc1ccc(NC(=O)CCCNC(=O)c2ccc(Cl)cc2)cc1,5,5,11,-1.3,x,2.6,-7.0,4,-0.7,5
Cc1cccc(N=Nc2c(C)[nH]n(C(N)=S)c2=O)c1C,28,-9,-8,-2.8,x,-0.3,2.7,-2,-5.7,105*
CCOc1ccc(C(C)=O)cc1CSc1nc(C)cc(C)n1,6,-8,-8,-4.1,-9%,0.9,0.9,14,-0.9,2
CN1CCN(S(=O)(=O)c2ccc(Sc3nnc(-c4cccs4)n3-c3ccccc3)nc2)CC1,-7,x,x,x,-1%,2.0,x,2,0.6,-1
COc1ccccc1CN(C)CC(=O)Nc1ccc(Cl)cc1C(F)(F)F,6,-34*,-18*,1.3*,-10%,0.3,7.5,13,0.3,-11
Cc1ccc(CNC(=O)c2ccc(NS(=O)(=O)c3cccs3)cc2)cc1,-2,-22,-10,12,0%,-1.1,-0.9,-7,-1.0,32
Cc1ccc(Cn2nnc3c(=O)[nH]c(C4CCCN(C(=O)Nc5ccc(F)cc5F)C4)nc32)cc1 (stereo unspecified),5,x,x,x,1%,1.2,x,-116,-0.4,-28
CCc1ccc(S(=O)(=O)NCCOc2cccc3cccnc23)cc1,0,-25,-28,0.2,x,4.9,-1.9,7,-1.4,11
Cn1c(SCC(=O)Nc2nc3c(s2)CCCC3)nnc1-c1ccccc1,1,x,x,x,2%,6.5,x,2,0.4,-21
CCOC(=O)c1c(NC(=O)CSc2n[nH]c(N)n2)sc(CC)c1C,1,x,x,x,-3%,1.9,x,26,0.1,10
O=C1CSC(c2ccccn2)N1c1ccc(Cl)c(Cl)c1 (stereo unspecified),-3,x,x,x,1%,2.3,x,-11,-0.5,6
Brc1ccc(OCc2ccccc2)c(CNCc2ccncc2)c1,1,x,x,x,-1%,0.5,x,56*,0.0,-10
Cc1cc(=O)oc2c3c(cc(OCC(=O)N4CCC[C@H]4C(=O)O)c12)OC(C)(C)CC3,2,x,x,x,x,0.4,8.6,-19,1.4,9
Cc1ccc(S(=O)(=O)NNC(=O)C(O)(c2ccccc2C)c2ccccc2C)cc1,-5,-52,-80,-20,-4%,2.5,-3.0,2,0.9,10
C/C=C/C(=O)OCC(=O)Nc1ccccc1Br,-7,4,3,-2.6,2%,u,2.7,1,1.1,18
COc1ccccc1OCc1cc(C(=O)N2CCN(C)C(c3ccccc3)C2)no1 (stereo unspecified),3,1,0,0.2,x,1.8,-9.5,20,0.6,-5
CCOc1ccccc1NC(=O)Cn1nnc(C(=O)NCCc2ccc(OC)c(OC)c2)c1N,-8,2,9,-1.0,1%,1.3,2.5,-23,0.4,12
COc1cc(NC(=O)C(C)C)ccc1NC(=O)c1cc2ccccc2o1,2,0,-11,-4.1,8%,2.3,-2.3,-4,-4.3,12
O=C(/C=N/O)NCC1CCNCC1,-3,x,x,x,0%,-1.6,x,-8,0.0,0
CC(C)N(C(=O)[C@H]1CC(CC(=O)NCCC2=CCCCC2)C(=O)N2CCc3c([nH]c4ccccc34)[C@]12C)C(C)C (stereo partly specified),3,0,5,1.3,2%,x,4.1,x,0.4,x
CC(C)N1CC(C(=O)Nc2cccc([N+](=O)[O-])c2)CC1=O (stereo unspecified),-1,-1,9,1.7,x,-0.1,0.1,-8,1.1,23
O=C(NC1CCCC1)C(c1ccccc1)N(Cc1cccnc1)C(=O)Cc1cccs1 (stereo unspecified),-8,4,1,-2.3,0%,-2.2,-1.7,67*,-0.3,-4
Cc1cccc(/C=N/N2CCN(c3ccccc3)CC2)c1,-11,x,x,x,-2%,12,x,-6,-8.2,3
CC1c2cc3c(cc2CCN1CC(=O)Nc1ccc(S(=O)(=O)N2CCCC2)cc1)OCCCO3 (stereo unspecified),0,-13,0,6.5,x,7.6,5.1,3,0.3,0
O=C(c1ccc(S(=O)(=O)N2CCCC2)cc1)N1CCN(S(=O)(=O)c2cccc(F)c2)CC1,x,17,0,3.2,3%,-0.5,-1.3,-14,x,-9
CC(=O)NC(CC(=O)Nc1cccc(S(=O)(=O)N2CCCC2)c1)c1ccccc1 (stereo unspecified),1,11,12,2.6,x,0.2,2.1,-3,0.2,-4
C/C(=C\C(=O)c1ccncc1)Nc1ccccc1O,1,x,x,x,-1%,-1.5,x,2,-0.9,3
COc1c(C)cc(C(=O)C2CCCN(Cc3cnc(N4CCOCC4)s3)C2)cc1C (stereo unspecified),-1,-2,-6,-3.0,x,0.2,0.7,40,0.4,-11
O=C(NC(=S)Nc1cccnc1)c1cccs1,-3,13,8,0.5,x,-1.8,0.5,-14,-5.1,-12
Cc1sc2nc3ccc(N4CCCCC4)nn3c(=O)c2c1C,7,x,x,x,12%,-3.5,x,22,-1.2,4
CSc1cccc(NC(=S)N2CCC(N(C)C3CCCC3)CC2)c1,-11,7,-4,3.6,1%,6.6,3.9,-9,-1.0,-2
O=C(COC(=O)CN1C(=O)NC2(CCCCC2)C1=O)Nc1cc(F)ccc1F,-6,9,11,4.2,x,x,-0.8,x,-0.2,x
Fc1ccc(CSc2ccc3nnc(-c4cccnc4)n3n2)cc1,4,15,0,-0.1,-13%,3.7,-2.6,8,0.2,-12
CCN(CC)S(=O)(=O)c1ccc(C(=O)NNC2=NS(=O)(=O)c3ccccc32)cc1,-6,9,12,2.2,2%,5.4,1.8,-11,1.5,-3
Cc1nc2ccccc2n1C(=O)N(C)C,-6,8,12,1.9,-6%,1.9,0.4,-10,-0.4,0
O=C(N/C(=C\c1ccccc1)C(=O)N1CCOCC1)c1ccco1,x,2,4,-1.9,x,1.1,-3.0,4,0.4,0
COc1ccccc1C/C(N)=N/OC(=O)COc1cccc2ccccc12,-9,-3,3,3.2,14%,3.1,-26,1,0.8,12
COc1ccc(C(=O)NNC(=O)CCC(=O)NNC(=O)c2ccc(OC)cc2)cc1,-14,3,8,0.0,x,-5.0,1.8,-2,0.2,-6
C/C(CC(=O)Nc1ccc(OCc2ccccc2)cc1)=N\NC(=O)C(=O)Nc1ccc(C)c(Cl)c1,2,x,x,x,-2%,-1.5,x,-5,-2.1,-2
Cc1cc(NC(=O)CCC(=O)N(CC(=O)NCC2CCCO2)c2ccc(F)c(Cl)c2)no1 (stereo unspecified),-19,x,x,x,x,-4.2,0.9,1,0.3,-4
CN(C)CC/C=C1/c2cc(F)ccc2CSc2ccc(F)cc21,5,x,x,x,1%,1.8,x,-2,-1.0,-41
O=C(Cc1ccccc1)Nc1ncnc2c1C(c1ccccc1)c1c(ccc3ccccc13)O2 (stereo unspecified),13,-2,6,-9.7,x,x,-0.5,x,-1.8,x

# The list continues.
compound,Beta apoptosis,rRNA inh HTS,rRNA inh HTS OD600,rRNA inh HTS RFP,Vif TR-FRET,RanGTP-Impb inh,AF4-AF9 inh,T cruzi inh,A1 inh,Calb FLC
COC(=O)C1=C(C)N(C)C(=O)NC1c1ccccc1 (stereo unspecified),-2,x,x,x,8%,1.9,x,-22,0.3,1
CCOC(=O)c1c(C)[nH]c(C(=O)N2CCc3cc(OC)c(OC)cc3C2)c1C,1,-13,-11,1.6,-6%,u,-4.3,3,-0.2,-1
COc1ccccc1C1=CC(=O)CC(C)(C)C1=O,-5,4,6,-1.2,x,x,-4.4,x,0.5,x
O=C(NCC1CCCO1)C(=O)N/N=C/c1ccccc1C(=O)O (stereo unspecified),-3,20,6,-6.5,9%,1.4,-2.8,0,0.1,2
